Screening results as filed in PubChem.
HTR5A inv ctr: counter-screen for OPRM1-OPRD1 inverse agonists: human HTR5A inverse agonism; inhibition, % at 9.3 µM; HTR5A cell line, luminescence; 340,000 tested, 0.083% active; P47898; in the data active = inhibition mostly above about 23%, no sharp cut-off; inactive = mostly below about 18%;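 note: 0% = cells with DMSO and 100% = no-cell wells with DMSO; some compounds called inactive have numbers as strong as hits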
Tat transport: inhibitors of E. coli Tat protein transport; E. coli MC4100 TorA-mCherry Tat export, fluorescence; inhibition, % at 10 µM; 340,000 tested, 0.036% active;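 active = mean replicate inhibition at least 50% and at least half of replicates individually reaching 50%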;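 note: exported cargo escapes ClpAP degradation while cytoplasmic cargo is degraded and loses fluorescence; 0% = median of neutral control wells and 100% = median of NaSCN control wells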
PKA-R1A activ: activators of PKA-R1A complex. AID 504707. 340,000 tested, 0.083% active. P00514+P68181. activation, % at 11.4 µM. PKA-R1A dissociation, Cy5-IP20 fluorescence polarization; scaled: DMSO 0%, 113 µM cGMP 100%;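 active = percent activation above the mean of all tested compounds plus 3 SD, cut at about 19% in these data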;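 note: higher means more PKAc released from R1A so a rise in polarization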
MOR-DOR inv ag: inverse agonists of human mu-delta opioid receptor heterodimerization. cell-based MOR-DOR heterodimer luminescence, inverse agonism. inhibition, % at 9.3 µM. 340,000 tested, 0.21% active. AID 504357; in the data active = inhibition above about 22%, passing the limit was not always enough;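 note: 0% = cells with DMSO and 100% = wells without cells with DMSO; values of inactives mirror those of a sister screen read the other way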
Target sequence (P35372 whole entry, looked up): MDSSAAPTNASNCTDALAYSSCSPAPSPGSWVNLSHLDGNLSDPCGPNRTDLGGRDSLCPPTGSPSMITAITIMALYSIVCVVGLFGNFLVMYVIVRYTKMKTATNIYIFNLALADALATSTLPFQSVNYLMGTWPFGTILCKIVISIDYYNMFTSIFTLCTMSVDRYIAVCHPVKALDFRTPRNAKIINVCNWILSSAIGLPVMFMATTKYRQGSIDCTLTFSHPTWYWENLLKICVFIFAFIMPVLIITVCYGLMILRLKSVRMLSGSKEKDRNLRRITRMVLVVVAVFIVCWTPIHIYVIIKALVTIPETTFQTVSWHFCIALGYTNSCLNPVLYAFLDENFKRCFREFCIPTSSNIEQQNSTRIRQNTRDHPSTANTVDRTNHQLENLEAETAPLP
Target sequence (P41143 whole entry, looked up): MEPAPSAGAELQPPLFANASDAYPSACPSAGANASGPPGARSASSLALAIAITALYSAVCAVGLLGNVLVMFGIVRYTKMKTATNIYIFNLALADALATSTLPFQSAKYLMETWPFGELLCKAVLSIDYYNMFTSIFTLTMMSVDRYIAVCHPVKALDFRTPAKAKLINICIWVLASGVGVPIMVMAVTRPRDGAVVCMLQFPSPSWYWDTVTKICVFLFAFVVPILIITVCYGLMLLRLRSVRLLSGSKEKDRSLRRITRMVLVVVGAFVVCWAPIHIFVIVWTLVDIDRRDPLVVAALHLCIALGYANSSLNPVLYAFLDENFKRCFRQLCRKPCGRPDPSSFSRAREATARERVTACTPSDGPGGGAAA
Mot1-301 SUMO: blocks SUMOylation pathway, rescuing yeast Mot1-301 growth; S. cerevisiae Mot1-301 growth rescue, ATP luminescence, 38.5C; percent above DMSO median, 100 means doubled; growth rescue, % at 18.8 µM; 320,000 tested, 1% active; AID 2716;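 active = every valid replicate shows activation above 250% relative to neutral control wells; inactive = the rest, any valid replicate at or below 250%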;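 note: OY570 slx delta 5 strain wells were the positive control but not used for scaling; some compounds called inactive have numbers as strong as hits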
PfHsp90 yeast 2: reduces growth (ATP signal) of yeast expressing P. falciparum Hsp90; S. cerevisiae expressing PfHsp90, BacTiter-Glo ATP, 48 h; yeast lacking PDR1 and PDR3 efflux regulators; inhibition, % at 9.4 µM; 310,000 tested, 0.32% active;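 active = every replicate shows inhibition above about 80%, whatever the replicate mean, limit read from the data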;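 note: 0% = DMSO neutral controls and 100% = 20 µM radicicol positive controls; yeast relying on Plasmodium falciparum Hsp90 in place of its own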
MOR-DOR ag: agonists of human mu-delta opioid receptor heterodimerization; 340,000 tested, 0.3% active; P35372+P41143; AID 504326; cells, OPRM1-OPRD1 heterodimerization, luminescence; activation, % at 9.3 µM; in the data active = activation above about 18%;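 note: 0% = vehicle-treated cells and 100% = reference agonist; values of inactives mirror those of a sister screen read the other way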
PKA-R2B act: activators of human PKA-R2B complex; P22694+P31323; activation, % at 11.4 µM; PKA-R2B holoenzyme dissociation, Cy5-IP20 fluorescence polarization; R2B truncated from residue 108, S112A mutant; 0% DMSO only, 100% 113 µM cGMP; 340,000 tested, 0.079% active;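 active = activation above a cutoff set at the mean over all compounds plus 3 SD, cut at about 18% in these data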;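 note: higher means more holoenzyme dissociation and a rise in polarization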
* marks the source's active call; other numbers are inactive results; nt = no result given; & = joins results of further samples. Only part of the results is shown (hit frequency here may not be typical).

SMILES	HTR5A inv ctr	Tat transport	PKA-R1A activ	MOR-DOR inv ag	Mot1-301 SUMO	PfHsp90 yeast 2	MOR-DOR ag	PKA-R2B act
COc1ccc(C(=O)COC(=O)c2ccc3c(c2)OCCO3)c(OC)c1	-9	-1	-12	-3	nt	nt	0.5	-4
COc1ccc(N2CCN(C(=O)CC3NC4CCCCC4NC3=O)CC2)cc1 (configuration not stated)	21	13	-16	9	-13	5	-1.7	2
Cc1ccccc1CS(=O)(=O)Cc1ccc(C(=O)NCCCN2CCOCC2)o1	22	-3	-5	11	181	20	-1.9	1
CCOC(=O)C1CCCN(CC(=O)N(C)c2c(N)n(Cc3ccccc3)c(=O)[nH]c2=O)C1 (configuration not stated)	15	3	-2	22	-24	7	-5.7	-1
CCOC(=O)/C(C#N)=C/C1=C(N2CCCC2)CC(C)(CC)OC1 (configuration not stated)	13	-4	-10	10	1	nt	-2.1	-9
CCn1c(C)cc(C(=O)CSc2nnc(-c3ccco3)o2)c1C	15	-2	-9	9	6	20	-2.3	-5
O=C(CSCc1ccc(F)cc1)N1CCN(c2ccccc2)CC1	-22	15	-19	-13	59	9	2.4	-5
COc1ccc(CNC(=O)C(c2ccc(O)cc2)N(Cc2ccco2)C(=O)c2snc(C(N)=O)c2N)cc1 (configuration not stated)	3	-9	-6	-1	6	-7	0.2	-2
Cn1c(NCCN2CCOCC2)nc2c1c(=O)n(Cc1cccc(Cl)c1)c(=O)n2C	2	-3	3	11	3	-44	-2.0	0
CC1(C)CC(=O)C2=C(C1)OC(N)=C(C#N)C2c1ccccc1OC(=O)N1CCOCC1 (configuration not stated)	15	-4	-2	1	142	-29	-0.1	1
COc1ccc(CC(C)NCC(O)c2ccc(O)c(NC=O)c2)cc1 (configuration not stated)	3	-9	-5&-5	nt	nt	10	nt	-8&-7
COC(=O)CNC(=O)C1Cc2ccccc2CN1S(=O)(=O)c1cccs1 (configuration not stated)	0	-2	-4	7	nt	-7	-1.4	3
CCOc1cc(N2CCOCC2)c(OCC)cc1NC(=O)c1nn(CC)c(=O)c2ccccc12	5	0	-14	10	0	nt	-2.6	-4
CCCCn1c(=O)nc2n(-c3ccc(C)cc3)c3ccccc3cc-2c1=O	-5	-12	-2	22	-20	27	-4.1	-5
CN(CC(=O)Nc1ccc(Cl)c(Cl)c1)C(=O)CNC(=O)Cc1ccccc1	-11	-6	0	5	-5	3	-1.2	9
O=C1C2C3c4ccccc4C(c4ccccc43)C2C(=O)N1Cc1ccccn1 (configuration not stated)	5	-2	-6	-1	-8	nt	0.3	2
Clc1ccc(-c2noc(CN3CCN(c4ccccc4)CC3)n2)cc1	4	7	-2	-10	nt	4	1.7	-6
NC(=O)c1cccnc1Nc1ccccc1Cl	17	1	1	4	-2	-20	-0.8	8
COc1ccc(OC2C(=O)N(CCc3ccc(OC)c(OC)c3)C2c2ccc3c(c2)OCO3)cc1 (configuration not stated)	6	-1	0	-16	-13	-6	3.4	-13
Cc1ccc(S(=O)(=O)N[C@H](C(=O)N2CCC(C(=O)N3CCC[C@H]3C(=O)O)CC2)C(C)C)cc1	14	17	6	13	nt	5	-2.3	-14
CCOC(=O)/C(C#N)=C\C1=C(N2CCCC2)CC(C)(CC)OC1 (configuration not stated)	6	-9	10	24	-15	2	-4.5	-9
N#CCOc1ccccc1P(=O)(c1ccccc1)c1ccccc1	-21	1	-3	6	-5	12	-1.1	-8
O=C(Nc1ncn[nH]1)c1cccc(F)c1	1	2	-1	14	8	-6	-2.4	7
O=C(c1ccc(F)cc1)C1CCN(C(=O)c2ccc(Cl)cc2)CC1	-11	7	0	6	nt	12	-1.1	-2
CCCOc1ccc(CNC(=O)C2CCN(c3nnc(N4CCCC4=O)s3)CC2)cc1	-5	-2	-6	-3	-6	17	0.6	0
Cc1cc(C)cc(C(=O)Nn2cnnc2)c1	1	-9	7	10	-16	25	-1.9	0
COc1ccc(CNC(=O)CCC(=O)c2ccccc2)cc1	-1	-1	-5	-6	5	4	1.5	-2
CCOc1ccc(CC(=O)Nc2c3c(nn2C(C)(C)C)CS(=O)(=O)C3)cc1	6	0	0	-4	-12	-6	0.7	2
COc1ccc(C)cc1NC(=O)n1ncc2c(C)cccc21	-5	-7	9	1	7	5	-0.2	5
Cc1nnsc1C(=O)N/N=C/c1ccccc1Cl	17	-3	-6	14	400	2	-2.8	-6
COc1ccccc1C(=O)Nc1ccnn1C1CCN(Cc2cc(C)c(C)cc2C)CC1	-14	-6	2	18	340	14	-5.6	-2
O=C(Nc1ccsc1C(=O)NC1CC1)c1ccccc1	14	-5	0	16	45	6	-3.2	-6
COC(=O)COc1ccc2cc(-c3ccc(OC)cc3)c(=O)oc2c1	2	10	4	9	8	-28	-1.6	4
O=C(O)C1CC=CCC1C(=O)NCc1cn2ccccc2n1 (configuration not stated)	-5	11	-1	4	7	-16	-0.7	10
Cc1cc2c(c(SCC#N)n1)C(=O)OC2	9	-6	2	2	583	nt	-0.3	2
COC(=O)NNC(=S)NCc1ccc(C)cc1	2	0	-6	11	3	-6	-2.1	0
O=C(CCS(=O)(=O)c1ccc(Br)cc1)N1CCN(c2ccccc2F)CC1	0	-3	7	13	12	0	-3.0	5
CCOC(=O)c1n[nH]c2ccccc12	7	-3	11	4	-7	nt	-0.8	-2
O=C(O)c1ccccc1/C=N/Nc1nc(N2CCCCC2)nc(N2CCCCC2)n1	nt	nt	nt	nt	15	nt	nt	nt
C=CCN1C2CCCC1CC(NC(=S)Nc1cccc(OC)c1)C2 (configuration not stated)	1	2	-10	7	-11	16	-1.4	-2
Cc1cccc(-c2c(NC(=O)c3ccco3)oc3ccc(Cl)cc3c2=O)c1	10	-1	2	10	11	-5	-1.9	-3
CCCC(=O)Nc1ccc2c(c1)nc1n2CCN(C2CCCCC2)C1	nt	6	-10	nt	-4	nt	nt	-5
COc1cc(-c2noc(C)c2C(=O)NCCCN2CCCC2=O)cc(OC)c1OC	-10	3	-6	0	1	1	0.1	-8
Cc1cccc(NC(=O)COC(=O)C2C3CC4OC(=O)C2C4C3)c1C (configuration not stated)	-36	3	4	-9	-2	2	1.1	3
Cc1cc(C(F)(F)F)nc(SCC(=O)NC2=NC(=O)C(C)S2)n1 (configuration not stated)	6	6	7	12	24	4	-2.0	-8
CCOc1ccccc1C(=O)N1CCOCC1	3	0	-8	9	-16	-9	-1.6	-4
O=C(Nc1ccn(CCCN(CCCn2ccc(NC(=O)OCc3ccccc3)nc2=O)CCc2cc3ccccc3[nH]2)c(=O)n1)OCc1ccccc1	-2	10	-3	8	nt	-17	-1.7	-11
O=C(O)c1cccc(NC(=O)c2ccc3c(c2)C(=O)N(c2ccccc2)C3=O)c1	-7	-4	3	7	9	20	-1.2	-5

Entries of single compounds, quoted from the list. Screens in order: HTR5A inv ctr	Tat transport	PKA-R1A activ	MOR-DOR inv ag	Mot1-301 SUMO	PfHsp90 yeast 2	MOR-DOR ag	PKA-R2B act
O=C(O)c1cccc(NC(=O)c2ccc3c(c2)C(=O)N(c2ccccc2)C3=O)c1 in the list: -7	-4	3	7	9	20	-1.2	-5
O=C(c1ccc(F)cc1)C1CCN(C(=O)c2ccc(Cl)cc2)CC1 in the list: -11	7	0	6	nt	12	-1.1	-2
COc1ccc(C(=O)COC(=O)c2ccc3c(c2)OCCO3)c(OC)c1 in the list: -9	-1	-12	-3	nt	nt	0.5	-4

The list continues:
SMILES	HTR5A inv ctr	Tat transport	PKA-R1A activ	MOR-DOR inv ag	Mot1-301 SUMO	PfHsp90 yeast 2	MOR-DOR ag	PKA-R2B act
c1ccc(N2CC3COc4ccccc4C3=N2)cc1 (configuration not stated)	-8	2	0	-28	nt	-23	6.5	-2
Cc1ccccc1Nc1nnc(SCC(=O)NCc2ccco2)s1	-22	0	-5	3	nt	-13	-0.5	-2
CCc1cccc(N(C(=O)c2csnn2)C(C(=O)NC(C)(C)C)c2ccncc2)c1 (configuration not stated)	8	-9	0	-4	443	-12	0.7	-7
CCCc1cc(C(N)=O)c(NC(C)=O)s1	-42	1	2	-5	563	2	0.9	-7
COc1cc(-c2nnc(COC(=O)c3cccn3C)o2)cc(OC)c1OC	-1	-3	13	2	296	-4	-0.3	4
O=C(O)c1ccc(Cl)c(NCc2cccnc2)c1	2	-4	9	0	-15	5	0.1	11
Cc1cn([C@H]2C[C@H](N=[N+]=[N-])[C@@H](CO)O2)c(=O)[nH]c1=O	11	39	0	-1	-7&-31	-21	0.1	3
COc1cc2nc(C3CCC3)nc(N3CCN(c4ccccc4OC)CC3)c2cc1OC	-9	8	-2	-29	-8	37	4.8	-3
COc1ccc(-n2nc3c(c2NC(=O)C2CCCC2)CS(=O)(=O)C3)cc1	10	1	3	19	70	3	-3.6	-3
CC(C)CCNC(=O)C1CCN(S(=O)(=O)c2ccc3c(c2)CC(C)N3C(=O)C2CC2)CC1 (configuration not stated)	14	25	-11	9	5	-32	-1.9	-15
CCC(C)(CN(C)C)OC(=O)c1ccccc1 (configuration not stated)	-12	-6	2	6	3	11	-1.2	-3
O=C(c1ccco1)N(Cc1ccc([N+](=O)[O-])cc1)c1ccc(Br)cc1	-6	5	-13	3	-11	nt	-0.5	-1

Continued, starting with the last four of the part before.
SMILES	HTR5A inv ctr	Tat transport	PKA-R1A activ	MOR-DOR inv ag	Mot1-301 SUMO	PfHsp90 yeast 2	MOR-DOR ag	PKA-R2B act
COc1ccc(-n2nc3c(c2NC(=O)C2CCCC2)CS(=O)(=O)C3)cc1	10	1	3	19	70	3	-3.6	-3
CC(C)CCNC(=O)C1CCN(S(=O)(=O)c2ccc3c(c2)CC(C)N3C(=O)C2CC2)CC1 (configuration not stated)	14	25	-11	9	5	-32	-1.9	-15
CCC(C)(CN(C)C)OC(=O)c1ccccc1 (configuration not stated)	-12	-6	2	6	3	11	-1.2	-3
O=C(c1ccco1)N(Cc1ccc([N+](=O)[O-])cc1)c1ccc(Br)cc1	-6	5	-13	3	-11	nt	-0.5	-1
O=C(Cc1ccc(Cl)cc1)Nc1ccc(N2CCN(C(=O)c3ccco3)CC2)cc1	5	-8	-7	9	16	-35	-2.3	-4
CC(=O)C1CCC2C3CCC4CC(=O)CCC4(C)C3C(O)CC12C (configuration not stated)	-6	-4	5	1	nt	0	-0.2	3
O=C(Nc1cnccn1)Nc1ccc(Cl)cc1Cl	8	-18	-1	-9	8	-4	1.4	8
COc1ccc(C(=O)N/C(=C/c2cccs2)c2nc3ccccc3[nH]2)cc1OC	-10	-1	6	7	-8	-8	-1.0	-1
CCNC(=S)NNc1nncc2ccccc12	-41	0	1	12	-22	6	-2.6	0
CC(CC(=O)Nc1nc2ccccc2[nH]1)c1ccccc1 (configuration not stated)	-1	-7	-6	-6	nt	-5	1.0	0
CNc1ccc(Oc2nc([N+](=O)[O-])nn2C)cc1	2	-6	7	-8	1	4	1.6	-4
CC(C)c1ccc(NC(=O)COC(=O)C2=COCCO2)cc1	-9	-7	7	2	4	-9	-0.4	3
NC(=O)c1ccc(NC(=O)CS(=O)(=O)c2cn(CC(=O)N3CCCCC3)c3ccccc23)cc1	1	4	-14	0	1	1	0.0	8
CCc1cccc(NC(=O)CCNS(=O)(=O)c2cc(Br)cnc2N)c1	3	0	2	1	-12	11	-0.2	-10
O=C(CN1CCN(C/C=C/c2ccccc2)CC1)Nc1cc([N+](=O)[O-])ccc1Cl	17	6	0	-14	135	19	2.4	-3
C=CCn1c(=S)[nH]c2cc(C(=O)N3CCN(c4ccccc4OC)CC3)ccc2c1=O	-17	1	-26	-1	-14	-1	0.2	-8
